VDR inh – inhibitors of human vitamin D receptor | AID 504847 | Potency, µM, inactives show max response, negative = inhibition, actives largely listed as inhibitors | actives 0.93% (n = 400,000) | VDR-SRC2-3 peptide fluorescence polarization, 2 h; active = well fitted inhibition curve with a large enough effect; inconclusive = small, poorly fitted or top-dose-only effect, or another doubt; inactive = no such curve, though single readings can be large or run the other way; also: series mostly up to about 120 µM
Target sequence (P11473 whole entry, looked up): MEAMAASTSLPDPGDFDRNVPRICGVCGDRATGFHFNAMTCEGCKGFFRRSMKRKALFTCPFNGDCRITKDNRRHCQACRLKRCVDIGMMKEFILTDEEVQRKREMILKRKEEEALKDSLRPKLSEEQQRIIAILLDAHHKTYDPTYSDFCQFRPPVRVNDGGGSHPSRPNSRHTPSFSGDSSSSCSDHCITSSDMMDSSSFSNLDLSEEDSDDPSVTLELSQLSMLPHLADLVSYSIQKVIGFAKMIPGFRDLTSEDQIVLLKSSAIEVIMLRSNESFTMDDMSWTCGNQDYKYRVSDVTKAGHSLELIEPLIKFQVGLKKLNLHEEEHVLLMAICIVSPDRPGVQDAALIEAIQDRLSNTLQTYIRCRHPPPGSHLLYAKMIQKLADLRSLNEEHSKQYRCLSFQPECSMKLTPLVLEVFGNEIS
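The screen uses fluorescence polarization to detect compounds that interfere with recruitment of the SRC2-3 coactivator peptide to VDR; plates are read after 2 h at room temperature.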
Active calls of the source: *; ? = inconclusive; & = joins results of further samples. % is scaled to controls: 0 for no effect and ±100 for the full control effect; potency is read from the fitted curve at half-maximal effect. These rows are one share of the data; rates above refer to the full screens.

no. | SMILES | VDR inh
1 | CC(=O)N[C@@H](Cc1c[nH]c2ccccc12)C(=O)OCC(=O)NCc1ccc2c(c1)OCO2 | -1%
2 | COc1ccc(/C=C/C(=O)N2CCN(C)CC2)cc1S(=O)(=O)N1CCCCC1 | 6%
3 | COc1ccc([C@@H]2[C@@H]3C(=O)N(C(C)(C)C)C(=O)[C@@H]3[C@]3(CC(C)C)C(=O)N(c4cccc(Br)c4)C(=O)N23)cc1 | -9%
4 | CCOc1ccc(CC(=O)NCCc2sc3nc(-c4ccc(F)cc4)nn3c2C)cc1 | 2%
5 | Cc1cccc(-c2ncc(CN3CCN(CC(C)C)C(CCO)C3)cn2)c1 (stereo not drawn) | -3%
6 | Cc1ccc(Cl)cc1N1CCN(CCCNc2ncnc3onc(-c4ccc(Cl)cc4)c23)CC1 | -12%
7 | COc1cc(S(=O)(=O)N2CCN(C)CC2)ccc1Cl | 0%
8 | O=C(NCc1ccccc1)c1cccc(S(=O)(=O)NCc2ccccc2)c1 | -4%
9 | O=C(NCCC1=CCCCC1)C1CCN(S(=O)(=O)c2cccc3cccnc23)CC1 | -13%
10 | COc1ccccc1N1C(=O)C(Cl)=C(Nc2ccccc2O)C1=O | ?
11 | Cc1ccc(NC(=O)COC(=O)Cn2c(C)csc2=O)cc1C | -5%
12 | CN(C)S(=O)(=O)c1ccc(N2CCCC2)c(C(=O)NNC(=O)COc2ccc(Cl)cc2)c1 | -28%
13 | Cc1cc(-n2c(C)nc3ccccc3c2=O)ccc1NC(=O)c1ccc([N+](=O)[O-])cc1 | 1%
14 | CCCN(CC(=O)Nc1ccccc1OC)C(=O)CCCN1C(=O)c2ccccc2C1=O | -15%
15 | CCOC(=O)C1=C(C)Nc2[nH]c(=O)[nH]c(=O)c2C1c1cccs1 (stereo not drawn) | -11%
16 | CCc1ccc(NC(=O)CSc2nc3c(sc4ccccc43)c(=O)n2CCCOC)cc1 | 2%
17 | CCC1Nc2ncnc(N3CCN(c4ccccc4)CC3)c2N(Cc2ccc(Br)cc2)C1=O (stereo not drawn) | -14%
18 | C/C(=N\NS(=O)(=O)c1ccc(Br)cc1)c1cccs1 | -5%
19 | O=C(Nc1cc(C(F)(F)F)ccc1Cl)C(Sc1cccc[n+]1[O-])c1ccccc1 (stereo not drawn) | -30%
20 | C=CCn1c(O)c(N=NC(=S)Nc2ccccc2F)c2ccccc21 | -21%
21 | CCN(CC)C(=O)CSc1nc2cc3c(cc2c(=O)n1CCCCCC(=O)NCc1ccc(OC)cc1)OCO3 | -11%&14%
22 | O=C(O)c1csc(Br)c1Br | 4%
23 | COc1ccc(CNC(=O)c2cc(C3CC3)nc3c2c(C)nn3-c2cccc(Cl)c2C)cc1 | 5%
24 | COc1ccccc1NC(=O)c1cc(C)oc1C | -10%
25 | Cc1ccc(NC(=O)NCc2ccc3c(c2)OCO3)cc1 | -8%
26 | COCn1c(-c2ccc(OC)c(OC)c2)nc2ccccc21 | -3%
27 | CC(Oc1ccccc1)C(=O)OCC(=O)NC(=O)NC1CCCCC1 (stereo not drawn) | 2%
28 | CC(C)(C)NC(=O)C(c1ccc(O)cc1)N(C(=O)CCC(=O)Nc1nccs1)c1cccc(F)c1 (stereo not drawn) | 12%
29 | Cc1ccc(-c2noc(CNc3ccccc3)n2)cc1 | 7%
30 | CC(=O)NC(CC(=O)Nc1ccc(S(=O)(=O)N2CCOCC2)cc1)c1ccccc1 (stereo not drawn) | -16%

6 entries from above, sorted by the value under VDR inh, lowest first:
no. | SMILES | VDR inh
19 | O=C(Nc1cc(C(F)(F)F)ccc1Cl)C(Sc1cccc[n+]1[O-])c1ccccc1 (stereo not drawn) | -30%
17 | CCC1Nc2ncnc(N3CCN(c4ccccc4)CC3)c2N(Cc2ccc(Br)cc2)C1=O (stereo not drawn) | -14%
9 | O=C(NCCC1=CCCCC1)C1CCN(S(=O)(=O)c2cccc3cccnc23)CC1 | -13%
25 | Cc1ccc(NC(=O)NCc2ccc3c(c2)OCO3)cc1 | -8%
26 | COCn1c(-c2ccc(OC)c(OC)c2)nc2ccccc21 | -3%
13 | Cc1cc(-n2c(C)nc3ccccc3c2=O)ccc1NC(=O)c1ccc([N+](=O)[O-])cc1 | 1%

Next part
no. | SMILES | VDR inh
31 | O=C(Nc1nnc(-c2ccc(F)cc2)o1)C1CCCN1S(=O)(=O)c1cccs1 (stereo not drawn) | 4%
32 | O=C(CSc1nccn1-c1ccc(F)cc1)Nc1nc2ccccc2s1 | -4%
33 | O=C(NCCc1ccccc1)C(c1ccc(F)cc1)N(C(=O)c1csnn1)C1CC1 (stereo not drawn) | -24%
34 | O=C(COC(=O)/C=C/c1ccco1)NCc1ccc(Cl)cc1Cl | -13%
35 | O=C(OCCN1C(=O)c2cccc3c(N4CCOCC4)ccc(c23)C1=O)c1ccccc1Cl | 8%
36 | O=C(N/C(=C\c1ccc([N+](=O)[O-])cc1)C(=O)N1CCOCC1)c1ccco1 | 19%
37 | Cn1c(=O)n(C)c2cc(NC(=O)Cc3ccccc3[N+](=O)[O-])ccc21 | -1%
38 | CCO/N=C(/C)c1c(O)c(C)c(-c2ccccc2)n(-c2ccccc2)c1=O | -4%
39 | c1ccc(CNc2nc3c(-c4ccccc4)nnn3c3ccccc23)cc1 | 1%
40 | Cc1nn(-c2ccccc2)c(Cl)c1C1C(C#N)=C(N)OC2=C1C(=O)CC(C)(C)C2 (stereo not drawn) | -5%
41 | COc1ccc(N/C=C/c2nc(SC)nnc2C)cc1 | 4%
42 | COc1cc(C2C(C#N)=C(N)Oc3c2oc(CO)cc3=O)ccc1OC(C)C (stereo not drawn) | -12%
43 | Cc1ccc(-n2c(SCC(=O)N3CCOCC3)nnc2-c2cccnc2)cc1 | 16%
44 | Cc1oc(-c2ccccc2)cc1C(=O)NC(Cc1c[nH]c2ccccc12)C(=O)O (stereo not drawn) | -17%
45 | N#CC1=C(N)SC(N)=C(C#N)C1c1cccc(O)c1 | -21%
46 | CCOc1ccc(CN2CCN(C3CCC3)CC2CCO)cc1 (stereo not drawn) | 22%
47 | CSCCC(NC(=O)c1ccc(Cl)cc1Cl)C(=O)N(C)Cc1nc2ccccc2c(=O)[nH]1 (stereo not drawn) | -9%
48 | O=C(COC(=O)CNS(=O)(=O)c1ccc(Br)cc1Cl)NC1CCCC1 | 17%
49 | CCOC(=O)N1CCN(CC(=O)Nc2sccc2C#N)CC1 | 11%
50 | CCc1ccccc1NC(=O)N1CCC(NC(=O)C(Cc2ccc(OC)c(OC)c2)NC(C)=O)CC1 (stereo not drawn) | 12%
51 | O=C1c2ccccc2NC(c2cccc(O)c2)N1NS(=O)(=O)c1ccccc1 (stereo not drawn) | 17%
52 | O=C(C1CCCN(C2CC(=O)N(c3ccc(Cl)cc3)C2=O)C1)N1CCCC1 (stereo not drawn) | -18%
53 | CC(C)C[C@H]1CN=C(N(C)C)N1CC1CCCCCC1 | -10%
54 | CNCc1nc2ccccc2[nH]1 | -3%
55 | O=C1C(Cl)=C(N2CCCC2)C(=O)N1c1ccc(F)cc1 | ?
56 | N/C(CN1CCCC1=O)=N\OC(=O)c1ccccc1Cl | -5%
57 | COc1ccccc1C(=O)NNC(=O)c1cccc(F)c1 | -16%
58 | CCOc1ccc(C(=O)Nc2ccc(NC(=O)c3ccccc3)cc2)cc1Br | -13%&-19%
59 | CCOc1ccc(N(CC(=O)NCCc2ccc(OC)cc2)S(C)(=O)=O)cc1 | -12%
60 | N#Cc1sc2nc3c(cc2c1N)CCCC3 | -17%
61 | CCC(C)C(=O)Nc1nnc(-c2cccs2)s1 (stereo not drawn) | 4%
62 | CN1/C(=C\C(=O)C[n+]2ccc(C(=O)c3ccccc3)cc2)C(C)(C)c2ccccc21 | -17%
63 | Cc1ccc(S(=O)CCNC(=O)Cc2ccc(Cl)cc2)cc1 (stereo not drawn) | -12%
64 | O=C(CCCc1nc2ccccc2s1)Nc1ccccc1 | 5%
65 | CCOC(=O)c1c(-c2ccc(OC)c(OC)c2)csc1NC(=O)c1ccccc1F | -25%
66 | CC(OC(=O)c1cccc(-n2cnnn2)c1)C(=O)Nc1ccccc1F (stereo not drawn) | 0%
67 | COc1ccc(/C=C2\SC(=O)N(CC(=O)N(C)C3CCS(=O)(=O)C3)C2=O)cc1 (stereo not drawn) | -11%
68 | COc1cc2nc(NC(=O)c3ccc(S(=O)(=O)N4CCc5ccccc54)cc3)sc2cc1OC | 4%
69 | Cc1ccc(Cl)cc1Nc1nn2c(=O)c3ccc(C(=O)NC4CCC(C)CC4)cc3nc2s1 (stereo not drawn) | 2%
70 | CCc1ccc(NC(=O)CCn2cccc2)cc1 | 4%
71 | O=S(=O)(CCN1CCOCC1)c1ccc(Oc2ccc(S(=O)(=O)CCN3CCOCC3)cc2)cc1 | 11%
72 | CSc1cccc(CN2CCC(Oc3cccc(C(=O)N4CCCC4)c3)CC2)c1 | -1%
73 | O=C(c1cc([N+](=O)[O-])ccc1Cl)N1CCc2ccccc21 | 2%
74 | O=C(CSc1nnc(-c2ccccc2F)o1)N1CCNC1=O | 10%
75 | CCCn1c(SCC(=O)NC(C)(C)C)nnc1C(C)C | -1%
76 | CCC(OC(=O)C1=Cc2ccccc2OC1)C(=O)NCc1ccco1 (stereo not drawn) | -11%
77 | CN(C)c1ccc(/C=N/NC(=O)c2ccc3c(c2)OCCO3)cc1 | 2%
78 | CCc1nn2cc(C(=O)c3ccccc3O)cnc2c1-c1ccc(F)cc1 | -9%
79 | Cc1nc(CNS(=O)(=O)c2ccc(Br)cc2)cs1 | -10%
80 | CC(=O)c1ccc(NC(=O)c2sc3nc(C)c(C)c(C)c3c2N)cc1 | 7%
81 | Cc1cc(C)n(CC(O)CN(c2ccccc2)S(=O)(=O)c2ccccc2)n1 (stereo not drawn) | -5%
82 | Cc1sc2nc(SCC(=O)N3CCCC3)[nH]c(=O)c2c1C | 0%
83 | CCCn1c(NC(=O)c2ccc([N+](=O)[O-])o2)nc2ccccc21 | -2%
84 | CCOc1ccc(CNC(=O)c2ccc3nc(CC)c(CC)nc3c2)cc1OC | -1%
85 | S=C(NC1CCCCC1)N(CCc1ccccc1)CCc1ccccc1 | -11%
86 | Cc1ccc(S(=O)(=O)N2CCN(C(=O)CSCc3ccc(C(C)C)cc3)CC2)cc1 | -9%
87 | COc1ccc(OCC(=O)Sc2ccc(C)cc2)cc1 | ?
88 | O=C(CN1C(=O)CCC1=O)Nc1cccc(NC(=O)CN2C(=O)CCC2=O)c1 | -7%
89 | COc1cccc(-c2nc(CS(=O)(=O)CC(=O)NCc3ccc(Cl)cc3)c(C)o2)c1 | -27%
90 | CCOCCc1nn2c(=O)cc(COC(=O)c3ccccc3Br)nc2s1 | 4%

Later entries:
no. | SMILES | VDR inh
91 | Cc1ccc(C2=NNC(=Nc3ccc(F)cc3)SC2)cc1 | -3%
92 | Cc1cc(=O)c2ccccc2n1CC(=O)NCc1ccccc1 | 0%
93 | COc1ccc(C2CC(=O)N3CN(C4CCCCC4)CSC3=C2C#N)cc1 (stereo not drawn) | 45µM*
94 | Clc1ccc(-c2cc(COc3ccccc3)no2)cc1Cl | -10%
95 | CCc1ccccc1NC(=O)CN1CCN(CC(=O)Nc2ccc3c(c2)OC2(CCCCC2)O3)CC1 | 7%
96 | C#CCOCCOCCOCCNc1nc(N2CCOCC2)nc(N2CCN(C(=O)CCCCCCCCCCNC(=O)[C@@H](CCSC)n3cc(CCO)nn3)CC2)n1 | -5%
97 | Cc1cccc(OCCCC(=O)NNC(=O)c2ccccn2)c1 | -2%
98 | CCCCOC(=O)c1ccc(-n2nnc3c(sc4nc(C)cc(C)c43)c2=O)cc1 | 17%
99 | CC(=O)NCCOc1cccc2cccnc12 | -2%
100 | Cn1c2ccccc2c2c(C(=O)N3CCN(c4ccccn4)CC3)cn(C3CCCC3)c(=O)c21 | 3%
101 | Cc1cc([N+](=O)[O-])ccc1NC(=S)NC(=O)C(c1ccccc1)c1ccccc1 | 20%
102 | S=C1NNC2(NN1)C1CC3CC(C1)CC2C3 | 10%
103 | COc1cc(/C=N/NC(=O)Cc2nnc(N)s2)cc(OC)c1OC | -7%
104 | CCOC(=O)c1ccc(NC(=O)C(C)NS(=O)(=O)c2ccc(OC)cc2)cc1 (stereo not drawn) | -25%
105 | CCc1ccc(Nc2cc(C)nc3nc(Cc4ccc(Cl)cc4)nn23)cc1 | -10%
106 | CCC(=O)N1CCc2cc(Br)cc(S(=O)(=O)N3CCN(c4ccc(C)cc4)C(C)C3)c21 (stereo not drawn) | -3%
107 | C/C(=N\Nc1ccc(Cl)c(C(=O)O)c1)c1cccs1 | -19%
108 | O=C(CSc1nnc(Nc2ccccc2F)s1)NC1CC1 | -19%
109 | CC1CCCCN1CCNC(=O)CCc1nnc2n(Cc3ccccc3)c(=O)c3ccccc3n12 (stereo not drawn) | 5%
110 | COc1ccc(CCNC(=O)CCc2ccc(OC)cc2)cc1 | 8%
111 | COc1ccc(C(=O)CSc2n[nH]c(=O)n2Cc2ccco2)cc1 | -7%
112 | CC(C)C[C@H](NC(=O)[C@H](CCCCN)NC(=O)[C@H](CCCNC(=N)N)NC(=O)[C@H](C)NC(=O)[C@H](CO)NC(=O)[C@H](CCCCN)NC(=O)[C@H](CCCNC(=N)N)NC(=O)[C@H](C)NC(=O)CNC(=O)[C@@H](NC(=O)[C@H](Cc1ccccc1)NC(=O)CNC(=O)CNC(=O)[C@@H](N)Cc1ccccc1)[C@H](C)O)C(=O)N[C@@H](C)C(=O)N[C@@H](CC(N)=O)C(=O)N[C@@H](CCC(N)=O)C(=O)O | -1%
113 | CC(C)=CCN1CCN(Cc2nc(-c3ccccc3)cs2)CC1CCO (stereo not drawn) | 0%
114 | CCOC(=O)c1c(NC(=O)OC)sc(C(=O)N(CC)CC)c1C | -5%
115 | C[C@H](NC(=O)c1[nH]cnc1C(=O)Nc1ccc(CNC(=O)OC(C)(C)C)cc1)C(=O)OC(C)(C)C | ?
116 | COc1cc2c(cc1NC(=O)c1cc(-c3ccccn3)nc3ccccc13)oc1ccccc12 | 18%
117 | OCc1cc(-c2ccc(Cl)c(Cl)c2)on1 | -11%
118 | Cc1ccc(S(=O)(=O)N(C)CC(=O)NNC(=O)Cc2cccc(F)c2)cc1 | -11%

Source: PubChem (National Center for Advancing Translational Sciences (NCATS))
